VACV Venus inh: qHTS for Stage-Specific Inhibitors of Vaccinia Orthopoxvirus: Venus Reporter Primary qHTS; Vaccinia virus Venus reporter expression, fluorescence; Potency, µM (top dose mostly 36.5 µM), without a hit: top-dose activity change, negative = inhibition, hits mostly inhibitors; hit rate 0.46% among 330,000; active means well fitted inhibition curve with a large enough effect; inconclusive means small, poorly fitted or top-dose-only effect; inactive means no such curve, though single readings can be large or run the other way; tested in A549 cells; note: nearly all actives have a fitted effect of over 30% in size; inactives centre near -10
VACV mCherry inh: qHTS for Stage-Specific Inhibitors of Vaccinia Orthopoxvirus: mCherry Reporter Primary qHTS. Vaccinia virus mCherry reporter infection, fluorescence; about a quarter of the inactives have no number. Potency, µM (titrated, usually from 36.5 µM), without a hit: at the top dose activity change, negative = inhibition, actives largely listed as inhibitors. hit rate 0.63% among 310,000; active = well fitted inhibition curve with a large enough effect; inconclusive = small, poorly fitted or top-dose-only effect; inactive = no such curve, though single readings can be large or run the other way; tested in A549 cells; note: nearly all actives have a fitted effect of over 35% in size; inactives centre near -10
* = called active by the depositor; i = inactive; ? = inconclusive; . = no result given; & = joins results of further samples; [ ] = another dose, or the depositor's remark. % is set by controls: 0 for no effect and ±100 for the full control effect; potency is the fitted concentration of half-maximal effect.

1) CCNC(=S)Nc1ccc2c(c1)c(=O)n(C)n2-c1cc(C)cc(C)c1
2) COc1cccc(CNC(=O)Cc2ccc(Br)cc2)c1
3) COCCNC(=O)c1cccc(OC2CCN(Cc3ccccc3C)CC2)c1
4) Cc1cc(C(=O)CCC(=O)N(C)CC2COc3ccccc3O2)c(C)s1 (centres undefined)
5) O=C(c1cnccn1)N(c1ccccc1)C1(C(=O)NC2CCCC2)CCCCC1
6) CCOc1cc2[nH]c(=O)n(CC3CCC(C(=O)NCCCOC)CC3)c(=O)c2cc1OCC (centres undefined)
7) O=S(=O)(c1ccc(Cl)cc1)N1CCN=C1SCc1cccnc1
8) O=C(CSC1=NCCN1)Nc1cccc([N+](=O)[O-])c1

| Compound | 1 | 2 | 3 | 4 | 5 | 6 | 7 | 8 |
| --- | --- | --- | --- | --- | --- | --- | --- | --- |
| VACV Venus inh | -11% | -3% | 0% | -7% | -14% | -13% | -26% | -17% |
| VACV mCherry inh | 1% | -11% | i | -14% | i | i | -16% | -21% |

Structural class: the compounds so far containing four or more nitrogen atoms
1) CCNC(=S)Nc1ccc2c(c1)c(=O)n(C)n2-c1cc(C)cc(C)c1
5) O=C(c1cnccn1)N(c1ccccc1)C1(C(=O)NC2CCCC2)CCCCC1
8) O=C(CSC1=NCCN1)Nc1cccc([N+](=O)[O-])c1

| Compound | 1 | 5 | 8 |
| --- | --- | --- | --- |
| VACV Venus inh | -11% | -14% | -17% |
| VACV mCherry inh | 1% | i | -21% |

(next part)
9) CCSc1nnc(NC(=O)C2CCN(C(=O)c3ccc(F)cc3)CC2)s1
10) C[C@@H]1CN([C@H](C)CO)C(=O)CCCn2nncc2CO[C@H]1CN(C)Cc1cccc(C(=O)O)c1
11) Cc1ccc(-n2nc3c(N4CCC(C(=O)N(C)Cc5ccccc5)CC4)nnc(C)c3c2C)cc1
12) Cc1ccccc1Nc1c(-c2ccsc2)nc2c(C)cccn12
13) O=C(CN1CCN(c2ccc(F)cc2)CC1)Nc1cccc(C(F)(F)F)c1
14) O=C1C[C@@H]2C(=O)N(c3ccccc3)C(=O)[C@@H]2[C@@H]2CN(S(=O)(=O)c3ccccc3)[C@@H](c3ccccc3)[C@H]12
15) c1ccc(-c2sc3ccccc3c2-c2ccc(OCCN3CCCCC3)cc2)cc1
16) CCN(CC)CCNC(=O)Cn1nc(C)c2c(C)n(-c3ccccc3)nc2c1=O

| Compound | 9 | 10 | 11 | 12 | 13 | 14 | 15 | 16 |
| --- | --- | --- | --- | --- | --- | --- | --- | --- |
| VACV Venus inh | -13% | -4% | -15% | -12% | ? | -5% | -18% | -13% |
| VACV mCherry inh | -17% | i | -18% | -2% | . | 6% | -15% | -13% |

17) O=[N+]([O-])c1ccc2nc(C3CCCCC3)[nH]c2c1
18) CCOc1ccccc1NC(=S)N(CCN(C)C)C(C)c1ccncc1 (centres undefined)
19) Cc1ccc2nc(-c3cccc(S(=O)(=O)N(C)C)c3)cn2c1
20) O=[N+]([O-])c1ccccc1C(=Nc1ccccc1)c1c(O)cc(O)cc1O
21) COc1cccc(N/C(N)=N/c2nc(C(F)(F)F)cc(C(F)(F)F)n2)c1
22) CCOC(=O)C(C)(C)Sc1nc2c(cnn2-c2ccc(F)cc2)c(=O)[nH]1
23) COc1cccc(CNC(=O)c2ccc(S(=O)(=O)N3CCOCC3)cc2)c1
24) CC(C)NC(=O)N(C)C[C@H]1OCc2cnnn2CCCC(=O)N([C@H](C)CO)C[C@@H]1C

| Compound | 17 | 18 | 19 | 20 | 21 | 22 | 23 | 24 |
| --- | --- | --- | --- | --- | --- | --- | --- | --- |
| VACV Venus inh | -10% | -2% | ? | -19% | -15% | -2% | -27% | -10% |
| VACV mCherry inh | -21% | -1% | ? | ? | i | ? | -5% | -15% |

25) CC(=O)c1ccc(S(=O)(=O)N(Cc2cc3cc4c(cc3[nH]c2=O)OCCO4)CC2CCCO2)cc1 (centres undefined)
26) COc1ccc(NC(=O)C(=O)NCC2CCCN2S(=O)(=O)c2cc(C)ccc2C)cc1 (centres undefined)
27) CCC(C)c1ccc(NC(=S)N2CCN(C(=O)C3CCCO3)CC2)cc1 (centres undefined)
28) COC(=O)CSCc1nc(-c2ccc(C(=O)OC)cc2)oc1C
29) CCCCCCCCSc1nnc(/N=C/N(C)C)s1
30) O=c1cc(O)nc(SCc2ccccc2Cl)[nH]1
31) CCn1c(SCC(=O)N2CCN(c3cccc(Cl)c3)CC2)nc2ccccc2c1=O
32) Cc1cc(NC(=O)Cn2cnc3sccc3c2=O)no1

| Compound | 25 | 26 | 27 | 28 | 29 | 30 | 31 | 32 |
| --- | --- | --- | --- | --- | --- | --- | --- | --- |
| VACV Venus inh | -6% | -29% | -18% | 2% | -16%[7.34 µM] | -5% | -10% | 0% |
| VACV mCherry inh | i | ? | -4% | 1% | -24%[7.34 µM] | . | ? | i |

Reprinted from the part before: 3 compounds; new compounds follow.
30) O=c1cc(O)nc(SCc2ccccc2Cl)[nH]1
31) CCn1c(SCC(=O)N2CCN(c3cccc(Cl)c3)CC2)nc2ccccc2c1=O
32) Cc1cc(NC(=O)Cn2cnc3sccc3c2=O)no1
33) CSc1c2c(nc3ncnn13)CCC2
34) Cc1cc(C(=O)Nc2ccc(C)c(S(=O)(=O)N3CCOCC3)c2)c(C)o1
35) O=S(=O)(NCCc1ccccc1)c1ccc(N2CCCCS2(=O)=O)cc1
36) COC(=O)C1=C(C)N(C)C(C)=C(C(=O)OC)C1c1ccncc1
37) O=C(NCCc1csc(-c2ccc(C(F)(F)F)cc2)n1)c1ccc(F)c(F)c1
38) CCCCN1C(=O)c2[nH]nc(-c3ccccc3O)c2C1c1cccc(OCc2ccccc2)c1 (centres undefined)
39) COC(=O)c1ccc(NC(=O)c2cccc(NC(=O)c3ccco3)c2)cc1
40) Cc1cccc(N(Cc2ccccc2)C(=O)c2cccc(S(=O)(=O)N3CC(C)OC(C)C3)c2)c1 (centres undefined)

| Compound | 30 | 31 | 32 | 33 | 34 | 35 | 36 | 37 | 38 | 39 | 40 |
| --- | --- | --- | --- | --- | --- | --- | --- | --- | --- | --- | --- |
| VACV Venus inh | -5% | -10% | 0% | 1% | -5% | -14% | -28% | -12% | -24% | -8% | -24% |
| VACV mCherry inh | . | ? | i | -11% | i | -7% | -27% | -16% | -16% | -11% | -2% |

41) Cc1ccc(C(=O)CN2C(=O)NC3(CCc4ccccc43)C2=O)s1 (centres undefined)
42) O=c1[nH]c(C2CCN(S(=O)(=O)c3ccc4c(c3)OCCO4)CC2)nc2c1nnn2Cc1cccc(F)c1
43) O=C(O)c1ccccc1C(=O)c1ccc2oc(=O)[nH]c2c1
44) COc1ccc(NC(=O)c2cc3ccccc3o2)cc1S(=O)(=O)N1CCCCC1
45) CCc1nc2c(OCc3ccc(S(C)(=O)=O)cc3)cccn2c1N(C)C(=O)c1ccccc1F
46) CCOC(=O)c1ccc(N2CSC3=C(C#N)C(c4cccs4)CC(=O)N3C2)cc1 (centres undefined)
47) CCC(=O)c1ccc(OCC(=O)NCc2ccccc2CN2CCCC2)cc1
48) O=C(Nc1ccc(C(=O)OCc2cc(=O)n3nc(C4CC4)sc3n2)cc1)c1ccccc1

| Compound | 41 | 42 | 43 | 44 | 45 | 46 | 47 | 48 |
| --- | --- | --- | --- | --- | --- | --- | --- | --- |
| VACV Venus inh | 4% | -5% | 3% | ? | -18% | 6% | -8% | -12% |
| VACV mCherry inh | -12% | -17% | 0% | ? | 13% | -28% | -14% | -10% |

In a second layout: entries from further up
Every second line gives: VACV Venus inh | VACV mCherry inh
(25) CC(=O)c1ccc(S(=O)(=O)N(Cc2cc3cc4c(cc3[nH]c2=O)OCCO4)CC2CCCO2)cc1 (centres undefined)
→ -6% | i
(26) COc1ccc(NC(=O)C(=O)NCC2CCCN2S(=O)(=O)c2cc(C)ccc2C)cc1 (centres undefined)
→ -29% | ?

Copied from above, compounds 45–46
45) CCc1nc2c(OCc3ccc(S(C)(=O)=O)cc3)cccn2c1N(C)C(=O)c1ccccc1F
46) CCOC(=O)c1ccc(N2CSC3=C(C#N)C(c4cccs4)CC(=O)N3C2)cc1 (centres undefined)

| Compound | 45 | 46 |
| --- | --- | --- |
| VACV Venus inh | -18% | 6% |
| VACV mCherry inh | 13% | -28% |

Next entries follow.
49) CCc1cc2c(SCc3nc4sc(C(C)=O)c(C)c4c(=O)[nH]3)ncnc2s1
50) CCN(CC)CCC(=O)Nc1ccc2c(c1)N(C(=O)CN(CC)CC)c1ccccc1CC2
51) COc1ccc(NC(=S)NC(NC(=O)C(C)C)C(Cl)(Cl)Cl)c([N+](=O)[O-])c1 (centres undefined)
52) Cc1ccc(NC(=S)NNC(=O)c2ccccc2OC(F)F)cc1
53) Cc1ccc2[nH]c(C)c(CCNC(=O)c3c(N)no[n+]3[O-])c2c1
54) Cc1ccc(CN2C(=O)C(Cc3ccccc3)Nc3ncnc(N4CCN(c5ccccc5)CC4)c32)cc1 (centres undefined)
55) O=C(Cc1ccc(OCc2ccccc2)cc1)NCc1ccc2c(c1)OCO2
56) Cc1ccc(S(=O)(=O)N2CCCC(c3nc(-c4ccc(C)o4)no3)C2)cc1 (centres undefined)

| Compound | 49 | 50 | 51 | 52 | 53 | 54 | 55 | 56 |
| --- | --- | --- | --- | --- | --- | --- | --- | --- |
| VACV Venus inh | 14% | -12% | -21% | -24% | -10% | ? | -1% | -17% |
| VACV mCherry inh | -6% | . | -15% | ? | -19% | i | 26% | -8% |

57) CC(=O)Nc1cccc(/C(C)=N/NC(=O)c2cccc(S(=O)(=O)N3CCOCC3)c2)c1
58) CCCCCOc1ccc(C(=O)OCC(=O)Nc2cc(C)on2)cc1
59) COc1ccc(Cn2nnnc2CN2CCN(c3ccc(OC)cc3)CC2)cc1
60) CN1C(=O)[C@@H]2[C@H](C1=O)[C@@H]1C(=O)Nc3ccccc3C(=O)N1[C@@H]2c1cccc(Br)c1
61) Cn1ncc(Cl)c1C(=O)N1CCCc2ccccc21
62) CSc1ccc(CCNC(=O)CCc2nnc3ccc(N4CCCC4)nn23)cc1
63) S=C(N=Nc1ccccc1)NNc1ccccc1
64) CN(CCc1ccc(Cl)c(Cl)c1)[C@@H]1CCCC[C@@H]1N1CCCC1

| Compound | 57 | 58 | 59 | 60 | 61 | 62 | 63 | 64 |
| --- | --- | --- | --- | --- | --- | --- | --- | --- |
| VACV Venus inh | 2% | -16% | 0% | -2% | 14% | -6% | -16% | -25% |
| VACV mCherry inh | -2% | -2% | -9% | i | . | -13% | -4% | ? |

65) CC(=O)Oc1ccccc1C(=O)Oc1ccccc1C(=O)O
66) N#Cc1c(-n2ncnc2-c2ccc(Br)cc2)sc2c1CCCCC2
67) COC(=O)c1ccc(N2CCN(C)CC2)c(NC(=O)COc2cccc(C)c2)c1
68) CC(C)NC(=O)c1cc(C2CCCCN2C(=O)OCCF)on1 (centres undefined)
69) COc1ccc(C)cc1NC(=O)CCS(=O)(=O)c1cc2c(cc1Cl)NC(=O)CO2
70) CCOC(=O)C1CCCN(C(=O)c2ccccc2[N+](=O)[O-])C1 (centres undefined)
71) CCN1CCN(S(=O)(=O)c2ccc(S(=O)(=O)NC3CC3)cc2)CC1
72) Cc1ccn(S(=O)(=O)c2ccc3oc(=O)ccc3c2)n1

| Compound | 65 | 66 | 67 | 68 | 69 | 70 | 71 | 72 |
| --- | --- | --- | --- | --- | --- | --- | --- | --- |
| VACV Venus inh | -9%&-15% | -6% | 1% | -14% | 10%[7.34 µM] | -4% | -10% | -3% |
| VACV mCherry inh | 0%&-4% | -14% | 8% | 13% | i[7.34 µM] | -12% | -21% | -4% |

73) COc1ccc2c(c1)nc(-c1cccc(Br)c1)c(=O)n2C(c1ccccn1)c1nc2ccccc2[nH]1 (centres undefined)
74) O=C(CSc1n[nH]c(-c2ccccc2)n1)N1CCN(c2ccccc2F)CC1
75) CN(C)CCCN(C(=O)c1ccco1)c1nc2c(F)cccc2s1
76) Cc1ccc(-n2nc3c(c2NC(=O)c2ccc(F)c(F)c2)CS(=O)(=O)C3)cc1
77) CCC(O)(C#CCN1CCCCC1)CC
78) NC1=NC(c2ccc(Cl)cc2)N(c2ccc(S(N)(=O)=O)cc2)C(N)=N1 (centres undefined)
79) CCOC(=O)c1c(NC(=O)CSc2cn(CCNC(=O)c3ccc(OC)cc3)c3ccccc23)sc2c1CCCC2
80) O=C(NC1CCOc2ccccc21)c1ccc(Cl)nc1 (centres undefined)

| Compound | 73 | 74 | 75 | 76 | 77 | 78 | 79 | 80 |
| --- | --- | --- | --- | --- | --- | --- | --- | --- |
| VACV Venus inh | -9% | -10% | -2% | -7% | -8% | -17% | -11% | 3% |
| VACV mCherry inh | -13% | -10% | 2% | i | -14% | i | -8% | -8% |

81) CCOc1ccc(S(=O)(=O)NCCC(=O)N(C)CC(=O)Nc2ccc(N3CCOCC3)cc2)cc1
82) COc1ccc(N2C(=O)C3ON(C4SC(=S)N(C)C4(C)C)C(c4ccc(Cl)cc4)C3C2=O)cc1 (centres undefined)
83) COc1ccc(CNC(=O)CSc2nnc(C3CC3)n2C2CC2)cc1
84) COc1cccc(Nc2nc(=O)[nH]nc2C)c1
85) COc1ccc(N2CCC(CNC(=O)Nc3ccc(OC)cc3OC)C2)cc1 (centres undefined)
86) COc1cc(/C=C/C(=O)Nc2ccc(C(C)=O)cc2)cc(OC)c1OC
87) CCOC(=O)c1c(-c2ccccc2)csc1NC(=S)N(CC)CC
88) O=C(O)CCC(=O)N1N=C(c2ccco2)CC1c1cccs1 (centres undefined)

| Compound | 81 | 82 | 83 | 84 | 85 | 86 | 87 | 88 |
| --- | --- | --- | --- | --- | --- | --- | --- | --- |
| VACV Venus inh | -20% | -16% | 0% | -7% | 10µM* | -20% | -9% | -4% |
| VACV mCherry inh | -20% | -11% | i | -19% | -16% | -30% | i | -10% |
